Screening results deposited in PubChem BioAssay by National Center for Advancing Translational Sciences (NCATS).
2A StopGo: lowers the luciferase signal of an FMDV 2A StopGo reporter. human cells with a luciferase reporter of 2A StopGo recoding; control for the full effect not named in the record. 410,000 tested, 1.2% active. Potency, µM (titrated, usually from 57.9 µM), for the others: at the top dose signal change, negative = less light; active = well fitted falling curve with a large enough effect; inconclusive = small, poorly fitted or top-dose-only effect; inactive = no such curve, though single readings can be large or run the other way; tested in HEK293T cells; further: on the % scale 0 is the no-effect control and ±100 the full control effect; nearly all actives have a fitted effect of over 45% in size; luciferase light after 4 h
Cruzain inh noDet: blocks cruzain activity in detergent-free assay | P25779 | purified cruzain, Z-FR-AMC fluorescence, no detergent | Potency, µM, for the others: max response, negative = inhibition, most hits filed as inhibitors | 200,000 tested, 2.3% active | AID 1476;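 further: plate controls were enzyme without inhibitor for no effect and buffer without enzyme for full effect; nearly all actives have a fitted effect of over 40% in size; top concentration of the series not given in the record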
Target sequence (P25779 123-467 limits assumed): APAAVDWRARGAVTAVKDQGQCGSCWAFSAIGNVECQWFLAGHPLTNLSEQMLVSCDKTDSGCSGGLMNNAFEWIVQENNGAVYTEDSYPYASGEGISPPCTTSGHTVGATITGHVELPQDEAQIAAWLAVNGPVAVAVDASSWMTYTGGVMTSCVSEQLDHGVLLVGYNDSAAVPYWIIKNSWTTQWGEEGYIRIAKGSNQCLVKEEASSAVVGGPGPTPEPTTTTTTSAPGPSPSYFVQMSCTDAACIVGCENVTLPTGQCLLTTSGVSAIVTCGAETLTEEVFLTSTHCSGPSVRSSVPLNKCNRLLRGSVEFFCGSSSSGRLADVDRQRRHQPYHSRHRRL
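Detergent-free condition (0.00005% Triton X-100) in acetate buffer pH 5.5 with DTT. 1.5 nM enzyme and compound were pre-mixed 15 min, then 2 uM Z-FR-AMC substrate added; reaction progress from fluorescence change between first and third reads (60 s).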
NS1 function inh: blocks influenza NS1 protein function. S. cerevisiae slowed by influenza A NS1, growth recovery by OD600. Potency, µM (top dose mostly 46.1 µM), without a hit: at the top dose activity, positive = more growth. 270,000 tested, 0.4% active; active means well fitted rising curve with a large enough effect; inconclusive means small, poorly fitted or top-dose-only effect; inactive means no such curve, though single readings can be large or run the other way; further: nearly all actives have a fitted effect of over 50% in size
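Compounds were scored for reversing the slow growth caused by influenza A NS1 in S. cerevisiae, measured by optical density at 600 nm. Assay medium contained 2% galactose at pH 6.0; NS1-free yeast of the same strain were the positive control.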
RE007 growth inh: less growth of the S. pombe RE007 Vpr strain; S. pombe RE007 Vpr strain, BacTiter-Glo ATP luminescence, 24 h; control for the full effect not named in the record; Potency, µM (titrated, usually from 92.2 µM), for the others: at the top dose activity change, negative = less growth; AID 651644; 360,000 tested, 0.21% active; active = well fitted falling curve with a large enough effect; inconclusive = small, poorly fitted or top-dose-only effect; inactive = no such curve, though single readings can be large or run the other way;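 further: on the % scale 0 is the no-effect control and ±100 the full control effect; nearly all actives have a fitted effect of over 50% in size; the assay follows cell death caused by Vpr and the record does not say whether a fall means rescue or toxicity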
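Fission yeast RE007 carrying one integrated HIV-1 vpr copy, seeded at OD 0.01 in PMG+AL medium with 23 nL pinned compound. Grown 24 h at 30 degrees; viability read by BacTiter-Glo luminescence after 5 min.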
LASV entry inh: inhibitors of Lassa virus binding or cell entry | Lassa virus pseudotype entry inhibition, cell reporter; control for the full effect not named in the record | Potency, µM (titrated, usually from 37.9 µM), for the others: top-dose activity change, negative = inhibition, most hits filed as inhibitors | 300,000 tested, 1.2% active | AID 540256; active means well fitted inhibition curve with a large enough effect; inconclusive means small, poorly fitted or top-dose-only effect, or effect the other way; inactive means flat fitted curve, though single readings scatter; tested in HEK293 cells; further: on the % scale 0 is the no-effect control and ±100 the full control effect; nearly all actives have a fitted effect of over 50% in size; luciferase read-out
MARV entry inh: Marburg virus entry inhibition; Potency, µM (series often up to 37.8 µM), without a hit: at the top dose activity change, negative = inhibition, actives largely listed as inhibitors; Marburg virus pseudotyped entry inhibition, cell reporter; control for the full effect not named in the record; about a third of the inactives were read at about 46 µM; 300,000 tested, 1.8% active; active = well fitted inhibition curve with a large enough effect; inconclusive = small, poorly fitted or top-dose-only effect, or effect the other way; inactive = flat fitted curve, though single readings scatter; tested in HEK293 cells; about a fifth of its hits are not listed in these tables; further: on the % scale 0 is the no-effect control and ±100 the full control effect; luciferase read-out
Cruzain inh Det: blocks cruzain activity in presence of Triton detergent; P25779; Potency, µM, inactives show max response, negative = inhibition, actives largely listed as inhibitors; AID 1478; purified cruzain, Z-FR-AMC fluorescence, 0.01% Triton; 200,000 tested, 0.43% active;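 further: plate controls were neutral wells for no effect and buffer without enzyme for full effect; nearly all actives have a fitted effect of over 40% in size; top concentration of the series not given in the record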
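Compounds were screened in titration against cruzain (1.5 nM) with 0.01% Triton X-100 to counter colloidal aggregation. Activity was the AMC fluorescence increase over 60 s after adding 2 uM Z-FR-AMC at pH 5.5.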
SARS PLpro yeast: inhibitors of SARS-CoV papain-like protease in yeast. S. cerevisiae expressing SARS-CoV PLpro, growth rescue; control for the full effect not named in the record. Potency, µM (titrated, usually from 32.9 µM), for the others: at the top dose activity, positive = growth rescue. 330,000 tested, 0.19% active. AID 485353; active means well fitted rising curve with a large enough effect; inconclusive means small, poorly fitted or top-dose-only effect; inactive means no such curve, though single readings can be large or run the other way; further: 0% is about no effect; nearly all actives have a fitted effect of over 55% in size; growth read by luminescence after 48 h
Numbers without * were called inactive; ? = inconclusive; / = not tested or not shown; & = joins results of further samples; [ ] = remark or other dose. Unless noted, the call rests on the fitted dose curve; in most records, active means well fitted curve in the direction sought with a large enough effect; inconclusive means small, poorly fitted or top-dose-only effect, or another doubt; inactive means no such curve, though single readings can be large; an effect the other way counts as inactive or inconclusive. Potency means the concentration at half of the fitted maximal effect.

molecule	2A StopGo	Cruzain inh noDet	NS1 function inh	RE007 growth inh	LASV entry inh	MARV entry inh	Cruzain inh Det	SARS PLpro yeast
CCOC(=O)CCCCC(=O)NC(CO)C(=O)NC (stereo unspecified)	-1%	-3%	-4%	6%	-9%	?	-1.6%	-4%
C=CCN1C(=Nc2ccccc2)SC/C1=C\C(=O)OC	-6%	2%	-32%	18%	7%	-9%	-4.6%	-8%
O=C(CS(=O)(=O)Cc1ccccc1)NCc1ccco1	23%	/	7%	0%	12%	0%[46.1 µM]	/	1%
CCN(CC)CCOCCOC(=O)C(CC)(CC)c1ccccc1	-11%	/	3%	-6%	?	-71%	/	0%
C=CCOc1ccc2c(c1)CCC1C2CCC2(C)C(O)C(O)CC12 (stereo unspecified)	49%[activator]	/	/	?	15%	16%	/	/
CCCSc1nc2c3c(sc2c(=O)[nH]1)CC(C)(CC)OC3 (stereo unspecified)	-4%	/	0%	-2%	-1%	2%[46.1 µM]	/	1%
CCn1cc(CN2CCC(Oc3ccc(C(=O)N4CCCCC4)cc3)CC2)cn1	10%	/	4%	-26%	2%	8%	/	1%
O=Cc1cccn1-c1ccccc1	-3%	/	2%	-5%	/	/	/	3%
O=C(CSc1nnnn1-c1cccc2c1CCCC2)N1CCOCC1	/	6%	-4%	-6%	-5%	1%	1.2%	4%
O=C(COC(=O)c1cccc(S(=O)(=O)N2CCOCC2)c1)NCCc1ccccc1	-4%	/	1%	-1%	/	/	/	-12%
COc1cc(C(=O)NCCSc2c(-c3ccccc3)[nH]c3ccccc23)cc(OC)c1OC	?	-9%	/	/	-28%[46.1 µM]	?	-7.2%	/
O=c1[nH]c2cc(Cl)ccc2c(O)c1-c1ccc(Oc2ccccc2)cc1	/	10µM*	-9%	/	3%	?	2.4%	/
Cc1ccc2c(=O)c(C(=O)c3cccc(Cl)c3)cn(CC(=O)NC3CCCCC3)c2n1	-13%	-4%	/	/	20%[46.1 µM]	/	2.7%	/
CCOC(=O)c1nnn(-c2nc(OC)nc(N3CCCCC3)n2)c1-c1ccccc1	/	10%	8%	/	/	-1%	-2.6%	-2%
CCOc1ccc(NC(=S)NCCCN2CCN(C3CCCCC3)CC2)cc1	-8%	-10%	7%	-7%	-1%	-16%	-2.6%	1%
COc1ccc(-c2cc(C(F)(F)F)nc(SCCC(=O)N3CCN4CCCC4C3)n2)cc1 (stereo unspecified)	-9%	3%	-35%	12%	?	28%&28%	1.4%	-2%
CCN(CC)C(=O)c1ccc(NC(=O)c2cn(-c3ccccc3)nc2-c2ccc(OC)cc2)cc1	0%	/	15%	-6%	?	?	/	-5%
COc1ccc(-n2c(=O)c3c4c(sc3n(CC(=O)NCC3CCCO3)c2=O)CCCC4)c(OC)c1 (stereo unspecified)	-7%	/	/	-1%	-28%	-3%[46.1 µM]	/	2%
O=C(CSc1nc2ccccc2c(=O)[nH]1)c1cccs1	26%	?	-30%	-10%	15%	-1%	7.5%	4%
O=[N+]([O-])c1cccc(-c2cc3cccc[n+]3cc2-c2cccc([N+](=O)[O-])c2)c1	-8%	-10%	12%	0%	24%	16%	-6.7%	-4%
COc1ccccc1[C@@H]1C(c2cccc(C)c2)=NN(c2ccc(Br)cc2)[C@H]1C(=O)N1CCOC1=O	-10%	10µM*	/	7%	/	/	-3.2%	4µM*
CCCn1nc(C(=O)N2CCCc3ccccc32)c2ccccc2c1=O	-28%	/	-2%	6%	-22%	-17%[46.1 µM]	/	-1%
Cc1onc(-c2ccccc2)c1C(=O)N1CCN(c2ncccc2C(F)(F)F)CC1	?	/	-31%	0%	-30%	-20%	/	4%
CC(=O)COC(=O)c1ccc2noc(-c3ccccc3)c2c1	-2%	/	8%	9%	-2%	?	/	-1%
CCN1CCN(c2cc(C)c3cc(NC(=O)CCC(=O)Nc4ccc(OC)cc4OC)ccc3n2)CC1	-2%	/	-1%	1%	8%	?	/	1%
O=C(COC(=O)CCC1CCCC1)Nc1nc2c(F)c(F)c(F)cc2s1	-2%	10µM*	4%	-2%	-20%[46.1 µM]	-13%[46.1 µM]	-3.7%	-16%
Cc1sccc1C1C(C#N)=C(N)SC(N)=C1C#N	/	-25%	16%	/	/	/	-14%	1%
O=C(Nc1ccc2c(c1)OCO2)N1CCN(Cc2ccco2)CC1	-22%	/	6%	-8%	?	?	/	-1%
Cc1cccc2cc(C(c3nnnn3Cc3ccc4c(c3)OCO4)N3CCCC3)c(=O)[nH]c12 (stereo unspecified)	8%	?	?	-21%	-3%	18%&18%[46.1 µM]	-2.6%	1%
COc1ccccc1C1C(C(N)=O)=C(C)Nc2ncnn21 (stereo unspecified)	18%	3%	-1%	-9%	-14%	1%	2.1%	1%
O=C(CSc1nc2sc3c(c2c(=O)[nH]1)CCCC3)Nc1ccccc1F	0%	-11%	/	/	-2%[46.1 µM]	/	-3.3%	/
COc1ccc(N/C=C(\C#N)S(=O)(=O)c2ccc(Cl)cc2)c(OC)c1	-22%	/	-9%	-1%	/	/	/	0%
O=C(Nc1cccc2ccccc12)N(CCO)C1CCS(=O)(=O)C1 (stereo unspecified)	-8%	/	6%	-10%	3%	2%[46.1 µM]	/	1%
C=CCn1c(-c2ccc(F)cc2)n[nH]c1=S	5%	/	/	8%	10%	-2%[46.1 µM]	/	1%
CCO[C@H]1OC(C(=O)NC2CC2)=C[C@@H](c2ccccc2)[C@@H]1CCCO	-12%	/	9%	0%	/	/	/	3%
CCN(C(=O)CN1CCN(c2ccccc2O)CC1)c1c(N)n(Cc2ccccc2)c(=O)[nH]c1=O	-3%	-10%	?	-6%	15%	10%	4.7%	6%
O=C(Cn1c(=O)nc(-c2ccccc2)c2cc(Cl)ccc21)N1CCN(c2ccc(F)cc2)CC1	6%	-4%	/	/	0%[46.1 µM]	/	3.0%	/
O=C(COC(=O)CNC(=O)c1cccc([N+](=O)[O-])c1)Nc1ccccc1OC(F)F	9%	20µM*	2%	35%	15%	14%	16µM*	7%
O=C(CS(=O)(=O)c1cn(Cc2cccc(F)c2)c2ccccc12)N1CCOCC1	8%	2%	-7%	-5%	1%	-17%	4.2%	5%
CN(C)c1ccc(C(=O)N2CCCC(N3CCN(Cc4ccc5c(c4)OCO5)CC3)C2)cc1 (stereo unspecified)	-19%	/	-4%	-9%	-31%	-28%	/	-2%
O=C(CSc1ncnc2nc[nH]c12)c1ccc(Cl)cc1	-17%	/	13%	2%	/	/	/	5%
CCC(CC)C(=O)N1CCCC(c2nc(-c3cccs3)no2)C1 (stereo unspecified)	-5%	1%	5%	11%	-15%	-18%[46.1 µM]	2.4%	6%
O=C(NC(NC(=S)Nc1ccc(Cl)cc1)C(Cl)(Cl)Cl)c1ccco1 (stereo unspecified)	-7%	6%	20%	-11%	-26%	?	?	-10%
COc1cc(/C=C/C(=O)OCC(=O)N2CCC(Cc3ccccc3)CC2)ccc1O	32µM*	1%	4%	-3%	?	-9%	-4.2%	-15%
CN1CCN(NC(=O)CN2C(=O)S/C(=C\c3c(Cl)cccc3Cl)C2=O)CC1	-24%	/	-2%	0%	-15%	-4%[46.1 µM]	/	-1%
COc1ccc(C)cc1NC(=O)c1c(C)nn(Cc2ccccc2)c1Cl	0%	8%	-10%	-20%	?	-8%[46.1 µM]	-5.9%	-16%
CC(C)C[C@H](NC(=O)CCn1nnc2ccccc2c1=O)C(=O)O	-5%	/	-1%	-7%	/	/	/	0%
COc1ccc(CC(=O)Nc2nc(C(C)(C)C)cs2)cc1	?	/	10%	7%	4.5µM*	?	/	-12%
Cc1c(C(=O)/C=C/N(C)C)nnn1-c1ccc(F)c(Cl)c1	6%	/	-6%	36%	-30%[46.1 µM]	?	/	-1%
COc1ccc2cc(C(c3nnnn3CCc3ccccc3)N3CCC(O)CC3)c(=O)[nH]c2c1 (stereo unspecified)	9%	-11%	-7%	17%	20%	-15%[46.1 µM]	-8.0%	-2%
CCOC(=O)c1cnc2c(C)cc(C)cc2c1Nc1ccc(OCc2ccccc2)cc1	-20%	-18%	/	/	0%[46.1 µM]	/	-2.7%	/
Cc1cccc(-n2nnc(C(=O)NCc3ccco3)c2N)c1	5%	-11%	-22%	20%	17%	?	3.4%	?
NS(=O)(=O)c1cccnc1Nc1cccc(Cl)c1	12%	10%	-1%	9%	3%	-10%&-10%	6.3%	-8%
CCN(CC)C(=O)c1[nH]cnc1C(=O)N[C@@H](CC(C)C)C(=O)OC(C)(C)C	-10%	/	2%	-6%	/	/	/	0%
Cc1cccc(N2C(=O)C(CC(=O)Nc3cccc(F)c3)N(CCc3ccncc3)C2=O)c1 (stereo unspecified)	-15%&14%	6%	/	2%	9%&1%[46.1 µM]	-4%&-16%[46.1 µM]	-0.4%	2%
O=C(Cc1nnc(NC(=O)Nc2ccc(F)cc2)s1)Nc1ccccc1	-7%	/	6%	-2%	/	/	/	0%
CCN1C[C@]2(C)CC[C@H](O)[C@@]34C5C[C@@H]6[C@@H](OC)C[C@@](O)(C5[C@H]6O)[C@@H](CC23)[C@@H]14 (stereo partly specified)	0%	-6%	/	/	/	3%&3%&3%	3.3%	/
O=C1[C@@H]2Cc3c([nH]c4ccccc34)[C@@H](c3ccccc3)N2C(=O)[C@@H]2Cc3c([nH]c4ccccc34)[C@@H](c3ccccc3)N12	/	10µM*	?	/	?	?	6.0%	-7%
CCc1ccc(NC(=O)C(=O)NCCc2csc(-c3ccc(C(F)(F)F)cc3)n2)cc1	2%	-2%	/	/	6%[46.1 µM]	/	5.9%	/
COc1cc(N(C(=O)Cc2cccs2)C(C(=O)NC2CCCCC2)c2cccc(OC)c2OC)ccc1-n1cnnn1 (stereo unspecified)	60%[activator]	?	13%	-8%	5%	16%	-4.9%	-9%

Compounds were not picked by outcome; overall some 4.7% were active at least once.
